Screening results: PubChem, National Center for Advancing Translational Sciences (NCATS)
Rango-impB inh – prevents formation of the Rango-importin beta complex | Rango CFP/YFP FRET sensor + importin beta, 45 min | Potency, µM (titrated, usually from 92.2 µM), inactives show top-dose inhibition of complex formation | hit rate 0.031% among 340,000; active = rising FRET ratio curve, often small or poorly fitted; inconclusive = mostly compound fluorescence or quenching in the first reads; inactive = flat curves in all reads;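 also: potency is read from the fitted curve at half-maximal effect; 0% = DMSO wells and 100% = buffer wells lacking importin beta; nearly all actives have a fitted effect of over 15% in size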
Target sequence (Q14974 whole entry, looked up): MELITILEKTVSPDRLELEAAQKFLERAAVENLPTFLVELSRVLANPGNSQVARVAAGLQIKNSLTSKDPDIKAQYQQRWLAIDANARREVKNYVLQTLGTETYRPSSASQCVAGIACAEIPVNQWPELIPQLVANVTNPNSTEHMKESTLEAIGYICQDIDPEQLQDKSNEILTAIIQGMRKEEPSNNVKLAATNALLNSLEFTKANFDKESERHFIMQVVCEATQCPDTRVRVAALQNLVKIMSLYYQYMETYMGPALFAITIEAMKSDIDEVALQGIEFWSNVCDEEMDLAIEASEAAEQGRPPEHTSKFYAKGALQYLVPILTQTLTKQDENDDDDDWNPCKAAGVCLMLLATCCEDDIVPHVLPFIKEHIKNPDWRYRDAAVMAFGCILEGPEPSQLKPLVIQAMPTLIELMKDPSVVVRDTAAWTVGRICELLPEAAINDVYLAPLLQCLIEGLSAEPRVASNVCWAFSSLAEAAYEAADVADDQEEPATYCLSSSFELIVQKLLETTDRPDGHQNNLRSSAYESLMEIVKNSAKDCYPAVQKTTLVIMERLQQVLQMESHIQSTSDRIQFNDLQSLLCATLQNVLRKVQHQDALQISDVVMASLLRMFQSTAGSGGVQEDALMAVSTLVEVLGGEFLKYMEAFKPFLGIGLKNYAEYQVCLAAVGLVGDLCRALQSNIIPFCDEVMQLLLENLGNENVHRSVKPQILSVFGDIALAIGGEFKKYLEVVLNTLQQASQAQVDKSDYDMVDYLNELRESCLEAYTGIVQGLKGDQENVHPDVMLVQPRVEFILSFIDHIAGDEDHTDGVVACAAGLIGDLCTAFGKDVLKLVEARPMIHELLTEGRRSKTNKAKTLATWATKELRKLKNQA
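Inhibition scored from the CFP 486 nm/YFP 530 nm FRET ratio 45 min after adding 0.125 microM importin beta to 50 nM Rango biosensor preincubated 5 min with compound (room temperature, PBS with DTT, Tween-20, BSA). No-importin wells as positive control.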
Rango dissoc inh – prevents RanGTP from dissociating the Rango-importin beta complex | O95149+P62826 | Biochemical FRET Rango-importin beta, RanGTP-induced dissociation | hit rate 0.071% among 340,000 | Potency, µM (doses to about 46.1 µM), for the others: at the highest dose activity change, negative = inhibition | AID 540253; active means falling FRET ratio curve, often poorly fitted, with flat reads before Ran was added; inconclusive means other falling curves, or compound fluorescence or quenching; inactive means flat or rising ratio curve;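 also: potency is read from the fitted curve at half-maximal effect; % of control where 0% means no effect; nearly all actives have a fitted effect of over 45% in size; -100% = wells without RanGTP and RCC1; the record marks most hits as doubtful in a second field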
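Rango FRET biosensor (snurportin-1 IBB flanked by N-terminal EYFP and C-terminal CFP10) at 0.1 uM, with 0.25 uM importin beta in PBS, 1mM DTT, 0.02% Tween-20, 0.1% BSA. 0.6 uM Ran, 2mM GTP and 0.2 uM RCC1 were then added for 45 min at room temperature. Inhibition read as loss of FRET rise.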
GLA inh pH 4.5 – blocks human alpha-galactosidase A at pH 4.5; P06280; purified enzyme, 4-MU-alpha-Gal fluorescence, pH 4.5; activity change, negative = inhibition, % at 105 µM; 230,000 tested, under 10 active; AID 1467; inconclusive = small, poorly fitted or top-dose-only inhibition, or a rising curve; inactive = flat fitted curve, though single readings scatter; no compound was filed as active;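 also: 0% = full activity with enzyme and -100% = basal without enzyme; dose as in the result columns while the protocol names 77 µM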
miR-21 reporter – miR-21 reporter, rising signal; 340,000 tested, under 10 active; HeLa miR-21 FLuc reporter, luciferase, 48 h; Potency, µM (highest dose often 38.3 µM), inactives show top-dose reporter change, positive = more light; active = well fitted rising curve with a large enough effect; inconclusive = small, poorly fitted or top-dose-only effect; inactive = no such curve, though single readings can be large or run the other way;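 also: % of control where 0% means no effect; miR-21 action dims this reporter so a rising signal means less miR-21 action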
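HeLa cells stably expressing CMV-driven firefly luciferase with a downstream miR-21 binding sequence, endogenously expressing miR-21, were treated with titrations (up to about 40uM final) for 48 hours at 37 degree Celsius. Luciferase luminescence was read after lysis.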
* marks the source's active call; other numbers are inactive results; ? = inconclusive; . = no result given. A portion of the library. The share of hits here may be higher or lower than overall.

SMILES	Rango-impB inh	Rango dissoc inh	GLA inh pH 4.5	miR-21 reporter
Cc1ccc(CN2CC(C(=O)NNC(=O)Cn3ccc(C(F)(F)F)n3)CC2=O)cc1 (stereo unspecified)	0.3%	-2%	.	.
CCN(CC)C(=S)SCC(=O)Nc1cccc(C(F)(F)F)c1	-0.3%	1%	.	.
N#CCCN(C(=O)CSc1nc2nc(-c3cccs3)cc(C(F)(F)F)c2c(=O)[nH]1)c1ccccc1	?	4%	-17	-6%
CC(C)N(C(=O)CSc1n[nH]c(=O)n1CCc1ccccc1)C(C)C	-0.2%	-1%	.	-3%
O=C(COc1ccc(F)cc1)Nc1nccs1	1.3%	-9%	-1	-22%
CCOC(=O)C(NC(=O)Nc1ncccn1)(Oc1ccccc1)C(F)(F)F (stereo unspecified)	-1.7%	-13%	2	-6%
CCOC(=O)c1nc(C)n(-c2ccc(Cl)cc2Cl)n1	?	-6%	9	-7%
O=C(Nc1ccccc1N1CCOCC1)c1ccc2c(c1)C(=O)N(Cc1ccncc1)C2=O	4.6%	-3%	-3	-1%
CC(=O)N1CC(C)Sc2ccc(S(=O)(=O)NCCc3ccc(C)cc3)cc21 (stereo unspecified)	-0.9%	-4%	.	13%
COc1ccc(NC(=O)c2ccc([N+](=O)[O-])cc2[N+](=O)[O-])c(OC)c1	-2.5%	1%	-2	7%
COc1ccccc1NC(=O)Cn1c(=O)n(CCc2c[nH]c3ccccc23)c(=O)c2cccnc21	2.0%	6%	1	0%
N/C(=N\OC(=O)Cc1cccc2ccccc12)c1ccccn1	0.7%	0%	7	-37%
CCn1nc(C(=O)OCC(=O)N(CCC#N)c2ccccc2)c2ccccc2c1=O	-4.6%	-11%	.	.
COc1ccccc1/C=N/NC(=O)c1ccccc1NS(=O)(=O)c1ccc(C)cc1	-2.6%	-2%	-11	-1%
O=C(/C=C/c1ccco1)NC1CCCC1	-0.1%	?	6	-2%
Cc1ccccc1C1=N/C(=C/c2cccnc2)C(=O)O1	-2.4%	-5%	-5	0%
CS(=O)(=O)N1CCN(c2ccc(NC(=S)NC(=O)c3ccc4c(c3)OCO4)cc2)CC1	3.9%	0%	-5	-1%
CN(C)C(=O)CN1c2cccc3cccc(c23)S1(=O)=O	1.6%	-17%	.	-4%
C=CCSc1nnc(Cc2cc(=O)[nH]c(=O)[nH]2)n1-c1cc(C)ccc1C	-1.8%	-3%	-6	-1%
O=C(c1cn(-c2ccccc2)nc1-c1cccnc1)N1CCN(S(=O)(=O)c2cccc(F)c2)CC1	-0.9%	10%	.	.
O=C(Nc1ccccc1N1CCOCC1)C1CCN(S(=O)(=O)c2ccc(Cl)cc2)CC1	-2.2%	-16%	1	7%
COC(=O)c1ccc(/C=N/NC(=O)c2cccc(F)c2)cc1	0.1%	-4%	-8	-53%
CCn1nc(C)c(CN2CCN(Cc3ccsc3)C(CCO)C2)c1C (stereo unspecified)	4.0%	-6%	5	0%
COc1cc(NC(=O)c2cc(C(C)C)on2)cc(OC)c1OC	0.1%	-9%	2	-5%
NS(=O)(=O)c1ccc(CCNC(=O)/C=C/c2ccccc2[N+](=O)[O-])cc1	6.6%	17%	-4	-1%

The last two entries of the section before come first, to join the parts.
SMILES	Rango-impB inh	Rango dissoc inh	GLA inh pH 4.5	miR-21 reporter
COc1cc(NC(=O)c2cc(C(C)C)on2)cc(OC)c1OC	0.1%	-9%	2	-5%
NS(=O)(=O)c1ccc(CCNC(=O)/C=C/c2ccccc2[N+](=O)[O-])cc1	6.6%	17%	-4	-1%
CC1C2CC(C/C2=N/NC(=O)c2cccs2)C1(C)C (stereo unspecified)	-0.9%	11%	-1	-71%
Cc1nc(N)sc1-c1csc(Nc2ncccn2)n1	?	-4%	5	-76%
Cc1cc(C(=O)Nc2ccc(C)c(S(=O)(=O)N3CCOCC3)c2)c2ccccc2n1	-1.7%	-13%	.	.
O=C(/C=C/Nc1cccc([N+](=O)[O-])c1)c1cccs1	-0.8%	9%	-8	-33%
O=C1CCN(CCCc2ccccc2)CCN1CCO	2.6%	-1%	.	-1%
CCc1nnc(NC(=O)c2cc(S(=O)(=O)N3CCCCC3)ccc2C)s1	?	-4%	.	.
C=CCn1cc(C(=O)NCc2ccco2)c(=O)c2cc(S(=O)(=O)N3CCCCCC3)ccc21	2.6%	-6%	-5	2%
Cc1ccc(C(C(=O)NC2CCCCC2)N(CCCN2CCOCC2)C(=O)c2snc(C(N)=O)c2N)cc1 (stereo unspecified)	-3.3%	37%	.	-2%
Cc1ccc(Cl)cc1-c1ccc(C=Nc2ccc(N3CCOCC3)cc2)o1	1.0%	-7%	-1	-19%
CCC/C(=N/NC(=O)c1cccc(Cl)c1)c1ccccc1	-4.7%	-4%	11	-31%
COc1cccc(/C=N/n2c(-c3cccs3)n[nH]c2=S)c1	-0.2%	?	-12	-4%
COCCCn1c(SCc2nc3ccccc3c(=O)[nH]2)nc2ccccc2c1=O	3.4%	20%	12	2%
CCN(CC(=O)NC(=O)NC1CCCCC1)Cc1nc2ccccc2c(=O)[nH]1	3.6%	2%	6	0%
Cc1ccc(S(=O)(=O)N2CCOCC2)cc1C(=O)OCC(=O)c1ccc(Br)cc1	?	-18%	.	.
O=C(CNC(=O)c1cccs1)NCCN1CCN(Cc2ccccc2)CC1	0.3%	0%	-5	-9%
NC(=O)NC(=O)COC(=O)c1ccc(OC(F)(F)F)cc1	-0.2%	-10%	6	0%
COc1cccc(/C=N/n2c(-c3ccco3)nc3ccccc3c2=O)c1OC	0.5%	1%	2	-2%
COc1ccccc1N(Cc1cc(=O)[nH]c2ccccc12)C(=O)c1ccc([N+](=O)[O-])cc1	-0.4%	10%	?	1%
O=C(c1cc(COc2cccc(C(F)(F)F)c2)on1)N1CCc2ccccc2C1	0.5%	-10%	.	.
COc1ccc(CN(C)C(=O)CNC(=O)c2sc3ccccc3c2Cl)c(OC)c1OC	-3.6%	-9%	.	.
CCOC(=O)N1CCN(C(=O)CN(Cc2ccc(Cl)cc2)S(=O)(=O)c2ccc(C)cc2)CC1	-0.8%	-22%	-3	-1%
Cn1c(N)c(C(=O)CCl)c(=O)n(C)c1=O	-0.3%	?	-1	9%
COc1ccccc1C(=O)OCC(=O)N1CCC(Cc2ccccc2)CC1	1.8%	6%	.	.
CN1/C(=C\C(=O)COC(=O)c2ccco2)C(C)(C)c2ccccc21	0.4%	6%	2	-3%
COc1cc(C(=O)NCC(=O)N/N=C(/C)c2ccc3c(c2)CCCC3)cc(OC)c1OC	?	-9%	3	-4%
Continued.
SMILES	Rango-impB inh	Rango dissoc inh	GLA inh pH 4.5	miR-21 reporter
CCN(CC)CCN1C(=O)C(=O)/C(=C(/O)c2ccc(Cl)cc2)C1c1ccncc1 (stereo unspecified)	4.3%	-10%	-8	3%
N#C/C(=C\c1cn(Cc2cccc(F)c2)c2ccccc12)C(=O)NCc1ccco1	?	?	0	-30%
Cc1ccc(-c2nc3ncccc3o2)cc1NC(=O)c1cccs1	7.1%	-7%	-15	-9%
O=C(c1ccc(N2CCCC2=O)cc1)N1CCN(c2ccccc2O)CC1	1.0%	3%	.	.
COC(=O)c1ccccc1OC(=O)c1cc2ccccc2oc1=O	0.8%	4%	.	-11%
CCC(C(=O)OCC(=O)Nc1ccc(C(=O)Nc2ccc(OC)cc2)cc1)c1ccccc1 (stereo unspecified)	-0.1%	-17%	-7	-15%
Cc1cc(C(=O)CN2C(=O)NC(c3ccccc3)(c3ccccc3)C2=O)c(C)n1Cc1ccco1	-0.9%	-1%	-2	10%
COc1ccc(OC)c(NC(=O)COC(=O)c2c(C)noc2C)c1	3.1%	12%	.	.
CC1CCN(S(=O)(=O)c2ccc3c(ccn3CC(=O)O)c2)CC1	-0.7%	-1%	.	-1%
CCOC(=O)C1CCN(C(=O)c2cc(COc3ccc(F)cc3F)on2)CC1	2.5%	1%	.	-50%
Cc1ccc2oc(C(=O)NCCCN3CCOCC3)c(C)c2c1	-0.2%	8%	.	-61%
CCOC(=O)c1ccc(N2CCN(C(=O)c3ccccc3)CC2)c(NC(=O)c2ccco2)c1	?	20%	.	16%
CCOc1ccc(-n2ccc(=O)c(C(=O)Nc3ccc(S(=O)(=O)Nc4nccs4)cc3)n2)cc1	-3.5%	-1%	.	-1%
Cn1nccc1NS(=O)(=O)c1ccc(NC(=O)C(F)(F)F)cc1	-3.3%	1%	-8	-1%
Cc1nc(-c2cccc(NS(=O)(=O)c3ccccc3)c2)cs1	0.9%	-2%	-1	-24%
N=C1SCC(=O)N1c1ncc(Cc2cccc(Cl)c2)s1	0.2%	-11%	6	-2%
Cc1onc(-c2ccccc2Cl)c1C(=O)NCc1ccccn1	-1.6%	9%	-6	-4%
CCOC(=O)c1cnc2nc(SCc3ccccc3Cl)[nH]n2c1=O	-2.0%	0%	.	.
CCNC(=S)SCCOc1ccc(C)cc1	1.4%	-10%	5	-10%
CCCN(CC1CC1)C(=O)COc1ccccc1C(=O)NCc1ccccc1	6.6%	-8%	-1	10%
CC(C)c1ccc(C2NC(C(=O)O)CS2)cc1 (stereo unspecified)	-5.6%	-8%	9	-4%
CN(CC(=O)NCC(=O)Nc1ccc(F)cc1)CC(=O)Nc1ccc(Cl)c(C(F)(F)F)c1	1.3%	5%	.	.
O=c1c2ccccc2ncn1Cc1ccccc1	1.3%	-1%	-4	-2%
O=C(NCCCNc1ccc([N+](=O)[O-])cc1Cl)c1ccccc1F	-3.6%	-12%	-3	-15%
Cc1cccc(NC(=S)NCCc2ccccc2)n1	-0.6%	-2%	0	3%
Continued:
SMILES	Rango-impB inh	Rango dissoc inh	GLA inh pH 4.5	miR-21 reporter
Cc1nc(SCC#N)c2c3c(sc2n1)CCC3	0.1%	-7%	-7	-2%
COc1ccc(C)cc1S(=O)(=O)N1CCN(S(=O)(=O)c2cc(C)ccc2OC)C(C)C1 (stereo unspecified)	-3.4%	7%	-9	-8%
Cc1c(C2(O)CCCCC2)[nH]c2cc(C(F)(F)F)ccc12	0.2%	-3%	.	.
S=C1SCN(CCN2CCOCC2)CN1Cc1ccccc1	3.7%	-6%	5	-1%
CCCc1cc(-n2cnc3ccccc32)n2c(nc3ccccc32)c1C#N	?	?	-8	1%
Cc1cc(C)cc(NC(=O)NNC(=O)c2cc3occc3[nH]2)c1	-1.9%	-16%	.	-15%
O=C(O)CCN=Cc1c(O)c2ccccc2oc1=O	0.2%	0%	6	13%
CCN(N=Nc1cccc([N+](=O)[O-])c1)c1cccc([N+](=O)[O-])c1	0.7%	9%	-15	4%
S=C(NN=C1CCN(Cc2ccccc2)CC1)NC1CCCCC1	0.6%	3%	4	-2%
COc1ccc(NC(=O)CSc2[nH]c(=O)cc(C)c2C#N)cc1OC	-0.5%	-2%	-6	-8%
Cc1ccc(C2=CC(C)(c3ccc(C)cc3)Nc3nc(C(F)(F)F)nn32)cc1 (stereo unspecified)	1.0%	-5%	-9	3%
O=C(NCc1ccccc1)c1onc(CSc2ccc(Cl)cc2)c1C(=O)NCC1CC1	-1.3%	0%	.	.
O=C(NCCc1ccccc1)C(=O)NCC1OCCCN1S(=O)(=O)c1cc(F)ccc1F (stereo unspecified)	-1.2%	-1%	.	1%
Cc1cccc(Oc2ncnc(N)c2[N+](=O)[O-])c1C	3.1%	-12%	-3	-6%
CCOC(=O)C1=C(CSc2nc(-c3ccncc3)ccc2C#N)OC(N)=C(C#N)C1c1ccc(OC)cc1 (stereo unspecified)	?	?	0	-20%
N#CC1=C(N)Oc2c(oc(CO)cc2=O)C12C(=O)Nc1ccc(Cl)cc12 (stereo unspecified)	0.1%	1%	4	-3%

Part of the list above in another layout.
smiles | Rango-impB inh | Rango dissoc inh | GLA inh pH 4.5 | miR-21 reporter
CCOC(=O)c1cnc2nc(SCc3ccccc3Cl)[nH]n2c1=O | -2.0% | 0% | . | .
Cc1cc(C)cc(NC(=O)NNC(=O)c2cc3occc3[nH]2)c1 | -1.9% | -16% | . | -15%
O=C(c1cn(-c2ccccc2)nc1-c1cccnc1)N1CCN(S(=O)(=O)c2cccc(F)c2)CC1 | -0.9% | 10% | . | .
COc1cccc(/C=N/n2c(-c3ccco3)nc3ccccc3c2=O)c1OC | 0.5% | 1% | 2 | -2%
Cn1c(N)c(C(=O)CCl)c(=O)n(C)c1=O | -0.3% | ? | -1 | 9%
